KCNQ2 inh: KCNQ2 potassium channel inhibitors, primary screen, cell-based, CHO-K1, FluxOR thallium flux, B-score (AID 2156); Potassium voltage-gated channel subfamily KQT member 2 (Rattus norvegicus), O88943; 20 min; active compounds read low; only compounds with negative scores are shown here; some inactives read as strong as hits; B-score at 10 µM; actives 1.1% (n = 310,000);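 active = fluorescence ratio B-score at most minus 3 library SDs, with starting brightness B-score within 2 library SDs, cut at about -5.5 in these data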
Target sequence (O88943 whole entry, looked up): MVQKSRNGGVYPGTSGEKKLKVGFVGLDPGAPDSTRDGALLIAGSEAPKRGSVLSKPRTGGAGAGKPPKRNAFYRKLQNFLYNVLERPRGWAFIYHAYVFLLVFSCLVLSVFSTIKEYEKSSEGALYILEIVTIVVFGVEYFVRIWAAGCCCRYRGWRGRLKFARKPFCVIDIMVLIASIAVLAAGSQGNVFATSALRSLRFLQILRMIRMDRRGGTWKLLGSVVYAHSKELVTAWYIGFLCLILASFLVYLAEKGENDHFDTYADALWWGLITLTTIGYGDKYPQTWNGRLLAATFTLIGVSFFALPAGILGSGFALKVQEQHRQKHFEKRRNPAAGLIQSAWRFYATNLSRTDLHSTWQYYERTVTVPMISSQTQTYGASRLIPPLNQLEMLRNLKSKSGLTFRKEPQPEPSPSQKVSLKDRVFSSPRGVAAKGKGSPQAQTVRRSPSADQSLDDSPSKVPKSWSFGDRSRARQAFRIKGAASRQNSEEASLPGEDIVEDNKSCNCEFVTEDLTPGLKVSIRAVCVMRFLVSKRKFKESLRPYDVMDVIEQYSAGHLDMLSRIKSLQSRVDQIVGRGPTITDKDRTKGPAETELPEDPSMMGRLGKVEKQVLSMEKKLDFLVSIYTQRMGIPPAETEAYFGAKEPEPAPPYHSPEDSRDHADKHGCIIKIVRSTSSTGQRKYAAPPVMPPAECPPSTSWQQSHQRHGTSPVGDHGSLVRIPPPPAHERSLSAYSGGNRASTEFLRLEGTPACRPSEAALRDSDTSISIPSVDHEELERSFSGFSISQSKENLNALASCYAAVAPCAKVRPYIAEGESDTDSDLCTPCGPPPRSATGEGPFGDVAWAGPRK
KCNQ2 inh baseline: recorded beside KCNQ2 inh, whose call it bears; B-score; measured here: initial fluorescence intensity artifact check;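 brightness before thallium and not channel activity; 0 = typical well and far values either way flag optical interference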
Active calls of the source: *; i = inactive.

SMILES	KCNQ2 inh	KCNQ2 inh baseline
CCN(C(=O)COC(=O)CNC(=O)c1ccc(C)c(C)c1)C1CCS(=O)(=O)C1 (configuration not stated)	i	0.95
Cc1ccccc1-c1cc2nc(C)c(C)c(=O)n2[nH]1	i	-0.05
CNC(=O)c1ccc(-n2nc(C)cc2-c2ccccc2)cc1	i	-0.5
CCOc1cccc(CNCCSc2nnnn2C)c1	i	1
c1ccc(CSC2=NNC(c3ccccn3)S2)cc1 (configuration not stated)	i	-0.85
CCCC(=O)Nc1cccc(NC(=O)c2ccc(C)c([N+](=O)[O-])c2)c1	i	-0.43
CCCC(=N)C1=C(O)CC(CC(C)SCC)CC1=O (configuration not stated)	i	-0.45
O=[N+]([O-])c1cc(-c2ncccn2)cs1	i	-1.7
COc1ccc(C(=O)O)cc1S(=O)(=O)N1CCSCC1	i	0.05
Cc1ccc(S(=O)(=O)Nc2ccc3c(c2)c2c(n3S(=O)(=O)c3ccc(C)cc3)CCCC2=O)cc1	i	-1
COc1ccc(OCC(=O)NNC(=O)c2cccc(O)c2)cc1	i	1.8
Cc1cc(=O)[nH]c(-n2[nH]c3c(c2=O)CCCC3)n1	i	0.02
Cc1cc(N2CCN(c3ccccc3)CC2)n2cc(-c3ccccc3)nc2n1	i	-0.61
COc1ccc(CNC(=O)COC(=O)c2c(-c3c(F)cccc3Cl)noc2C)cc1OC	i	0.65
O=C(NCCCn1ccnc1)c1cccc(S(=O)(=O)N2CCCCCC2)c1	i	2
O=C(c1cc(-c2cccc(Cl)c2)on1)N1CCCCCC1	i	1.3
Cc1ccc(NC(=O)C(=O)NCCN2CCN(S(=O)(=O)c3ccccc3)CC2)cc1C	i	-1.1
CNC(=S)N(CCc1c(C)[nH]c2ccc(F)cc12)Cc1ccco1	i	-2.5
Cc1cccc(OCC(=O)N2CCC(c3ccccc3)C2)c1 (configuration not stated)	i	0.39
CC(=O)Nc1ccc2c(c1)OCCOCCOc1cc(NC(C)=O)ccc1OCCOCCOCCO2	i	2.3
COc1ccc(S(=O)(=O)NNC(=O)c2cc3c4ccccc4n(C)c3s2)cc1	i	-2.2
Cc1ccc(NS(=O)(=O)c2cc(NC(=O)c3cc4c(s3)CCCC4)ccc2C)c(C)c1	i	0.57
N#C/C(=C\c1ccc(N2CCOCC2)o1)C(=O)N1CCOCC1	i	10
COc1ccc(S(=O)(=O)N2CCC(C(=O)NCC3CCCO3)CC2)cc1 (configuration not stated)	i	2.7
O=C(CCl)N1c2ccccc2OCC1c1ccccc1 (configuration not stated)	i	-0.86
More records.
SMILES	KCNQ2 inh	KCNQ2 inh baseline
COC(=O)CCCCCC(CCC(=O)OC)NC(C)=O (configuration not stated)	i	1.7
Cc1ccc(C(CC(=O)O)Nc2nc(N3CCOCC3)nc(N3CCOCC3)n2)cc1 (configuration not stated)	i	0.72
COc1ccccc1-c1nnc(SC(C)C(=O)N2CCOCC2)o1 (configuration not stated)	i	0.67
CC12CCC(C(=O)N(NC(=O)c3cc(Cl)ccc3O)C1=O)C2(C)C (configuration not stated)	i	-0.91
Cc1cccnc1NC(=O)CSc1ncnc2sc(C)c(C)c12	i	-1
Cc1ccc(NC(=O)CCn2cnc3cc(C)c(C)cc32)cc1	i	-0.17
CCOC(=O)CC(=O)CSc1nccc(-c2cccnc2)n1	i	1.9
COc1cccc(N2CCN(CC(=O)Nc3ccc(SC(F)F)cc3)CC2)c1	i	-1.8
CCN(CC(=O)Nc1ccc(NC(C)=O)cc1)C(=O)CC1OC(=O)c2ccccc21 (configuration not stated)	i	1.6
CCOC(CCn1c(SCc2ccc([N+](=O)[O-])cc2)nc2ccccc2c1=O)OCC	i	-0.67
CCOC(=O)C1=C(C)NC(=O)NC1c1ccc(OCC(=O)Nc2ccccc2)c(OC)c1 (configuration not stated)	i	-1.2
Cc1cccc(NC(=O)COC(=O)CCc2ccccc2)c1C	i	-0.11
CCOC(=O)N1CCN(C(=O)CS(=O)Cc2nc(-c3ccc(OC)c(OC)c3)oc2C)CC1 (configuration not stated)	i	0.09
N#CCC(=O)N/N=C/c1cc(-c2ccccc2)n(-c2ccc(Cl)cc2)c1-c1ccccc1	i	1.4
NCc1oc(-c2ccccc2)cc1C(=O)O	i	-1.4
O=C(NCC(c1cccs1)N1CCOCC1)c1cccc([N+](=O)[O-])c1 (configuration not stated)	i	-1.2
Cc1cc(OC(=O)c2cccs2)ccc1C(C)C	i	1.7
COc1ccccc1N1CCN(C(=O)c2cc3c(s2)-c2ccccc2OC3)CC1	i	-0.71
O=C1c2ccccc2CCC12N=NCC2c1ccc(Cl)cc1 (configuration not stated)	i	0.6
Cc1nc(N2CCN(C(=O)COc3ccccc3)CC2)c2c(C)c(C)sc2n1	i	0.19
CCOC(=O)CSc1nc2c(sc3ccccc32)c(=O)n1CCCN1CCOCC1	i	1.2
CC(=O)c1cccc(NC(=O)c2csc3c2CCCCC3)c1	i	0.4
COc1ccccc1/C=C/C(=O)NCC(=O)n1nc(C)cc1C	i	-1.2
Cn1c(CCN2CCCCC2)nc2cc(NS(=O)(=O)c3ccc(F)cc3)ccc21	i	0.23
COc1cccc(C2(c3cccc(OC)c3)CC2C(=O)Nc2ccccc2Cl)c1 (configuration not stated)	i	-0.8

Record cards, from the list above. Screens in order: KCNQ2 inh	KCNQ2 inh baseline
Entry for `COc1ccccc1N1CCN(C(=O)c2cc3c(s2)-c2ccccc2OC3)CC1` = i	-0.71
Entry for `CCOC(=O)N1CCN(C(=O)CS(=O)Cc2nc(-c3ccc(OC)c(OC)c3)oc2C)CC1` (configuration not stated) = i	0.09

Reformatted with values ahead of the structure: part of the list above
KCNQ2 inh	KCNQ2 inh baseline	Structure
i	0.95	CCN(C(=O)COC(=O)CNC(=O)c1ccc(C)c(C)c1)C1CCS(=O)(=O)C1 (configuration not stated)
i	-0.05	Cc1ccccc1-c1cc2nc(C)c(C)c(=O)n2[nH]1
i	-0.5	CNC(=O)c1ccc(-n2nc(C)cc2-c2ccccc2)cc1
i	1	CCOc1cccc(CNCCSc2nnnn2C)c1
i	-0.85	c1ccc(CSC2=NNC(c3ccccn3)S2)cc1 (configuration not stated)
i	-0.43	CCCC(=O)Nc1cccc(NC(=O)c2ccc(C)c([N+](=O)[O-])c2)c1
i	-0.45	CCCC(=N)C1=C(O)CC(CC(C)SCC)CC1=O (configuration not stated)
i	-1.7	O=[N+]([O-])c1cc(-c2ncccn2)cs1
i	0.05	COc1ccc(C(=O)O)cc1S(=O)(=O)N1CCSCC1
i	-1	Cc1ccc(S(=O)(=O)Nc2ccc3c(c2)c2c(n3S(=O)(=O)c3ccc(C)cc3)CCCC2=O)cc1
i	1.8	COc1ccc(OCC(=O)NNC(=O)c2cccc(O)c2)cc1
i	0.02	Cc1cc(=O)[nH]c(-n2[nH]c3c(c2=O)CCCC3)n1
i	-0.61	Cc1cc(N2CCN(c3ccccc3)CC2)n2cc(-c3ccccc3)nc2n1
i	0.65	COc1ccc(CNC(=O)COC(=O)c2c(-c3c(F)cccc3Cl)noc2C)cc1OC

Next section
SMILES	KCNQ2 inh	KCNQ2 inh baseline
O=C1C2C(C(=O)N1CC1CCCO1)C1C=CC2C12CC2 (configuration not stated)	i	1.3
COC(=O)c1c(NC(=O)c2ccccc2N(C)S(=O)(=O)c2ccccc2)sc2c1CCCC2	i	1
c1cncc(CSc2ccc(-c3ccc4c(c3)OCO4)nn2)c1	i	0.78
O=C(CSc1nnc(-c2ccc(C(F)(F)F)cn2)o1)Nc1ccccc1Cl	i	-0.28
CCOC(=O)Cc1c(C)nc2c(-c3ccccc3)c(C)nn2c1C	i	-1.7
COc1ccc(S(=O)(=O)NCCS(=O)(=O)N2CCN(c3ccccc3)CC2)cc1	i	-0.76
Cc1ccccc1OCC(=O)NCC(=O)OCC(=O)c1ccc2ccccc2c1	-6*	0.46*
CCCCCOc1ccc(Br)cc1CSC(=N)N	i	-0.63
CCN1C/C(=C/c2cccs2)c2nc3ccccc3c(C(=O)O)c2C1	i	0.3
O=C(CCCN1C(=O)[C@H]2CC=CC[C@H]2C1=O)NCc1nc(-c2ccc(Cl)cc2)no1	i	-0.87
CC1=CC(c2ccccc2)n2nc(N3C(=O)CCC3=O)nc2N1 (configuration not stated)	i	0.11
COCCN1Cc2cc3cc(C)ccc3nc2SC1=Nc1ccc(OC)cc1	i	-1.1
CC(=O)Nc1ccc(S(=O)(=O)Nc2nc(C)nc3sc4c(c23)CCC4)cc1	i	1.2
COc1ccc(N(CC(=O)N2CCCC(C)C2)S(=O)(=O)c2c(C)nn(C)c2C)cc1 (configuration not stated)	i	0.01
O=C(C[n+]1ccccc1)c1ccc(NC(=O)c2ccccc2)cc1	i	0.16
COc1ccc(CCNC(=O)CN2CCN(c3cccc(C(F)(F)F)c3)CC2)cc1	i	-0.88
COc1ccc2[nH]c(=O)c(CN(C(=O)c3cccnc3)c3ccccc3C)cc2c1	i	-0.16
N/C(=N\OC(=O)COc1cc(Cl)c(Cl)cc1Cl)c1ccncc1	i	-0.19
Cc1ccc(Cn2ncc3c(N4CCN(c5ccccc5C)CC4)ncnc32)cc1	i	0.61
CCCN1CCC(NC(=O)Cc2ccc(C)cc2)CC1	i	0.38
O=C(CSc1ccc2nnc(-c3ccncc3)n2n1)Nc1ccc2c(c1)OCCO2	i	-2.2
CN(Cc1ccccc1)S(=O)(=O)c1csc(C(N)=O)c1	i	-0.02
O=C(CCN1CCCO1)N1CCCC(N2CCN(c3cccc(C(F)(F)F)c3)CC2)C1 (configuration not stated)	i	-0.63
COc1ccccc1N1CCN(CCCOc2ccc(F)cc2)CC1	i	-0.08
CN(CC(=O)N1CCCC1)S(=O)(=O)c1ccc(Cl)cc1	i	0.33
(next part)
SMILES	KCNQ2 inh	KCNQ2 inh baseline
CC(C)(C)C(=O)C(Cc1ccccc1)n1cncn1 (configuration not stated)	i	-0.04
CN(Cc1ccccc1)C(=O)Cn1nc(C(F)(F)F)c2c1CCC2	i	-1.2
CCC(C(=O)Nc1ccc2c(c1)OCCO2)n1nnc2ccccc2c1=O (configuration not stated)	i	-1.9
C/C(=N\NC(=O)COc1ccccc1)c1cccs1	i	0.47
N#Cc1cc(-c2ccccc2)nnc1Oc1ccccc1	i	-1.4
COC(=O)c1ccc(C2C(C(=O)c3ccco3)=C(O)C(=O)N2CC2CCCO2)cc1 (configuration not stated)	i	-1.2
CCn1c(CSc2n[nH]c(N)n2)nc2cc(C(=O)O)ccc21	i	1.6
O=C(COc1ncnc2ccccc12)Nc1cccc([N+](=O)[O-])c1	i	0.03
Cc1nn(C)cc1C1C2=C(CC(C)(C)CC2=O)N(c2ccccc2)C2=C1C(=O)CC(C)(C)C2	i	0.59
Cc1ccc(C)n1-c1ccc(C(=O)Nc2ccccc2F)cc1	i	-1.1
CCCCOc1ccc(-c2cc(C(=O)NNC(=S)NCC)c3ccccc3n2)cc1	i	4.7
COc1ccc(N2CCN(c3nc(NC(C)(C)C)nc(N4CCCCC4)n3)CC2)cc1	i	-2.2
CC(C)OC(=O)Cn1nc(C(F)(F)F)c2c1CCCC2	i	-0.04
O=C(Nc1cccc(S(=O)(=O)N2CCCCC2)c1)Nc1ccc(Cl)cc1Cl	i	0.89
O=S(=O)(c1cc(Cl)ccc1Cl)N1CCCCC1	i	-1.3
O=C(O)C1C2C=CC(C2)C1C(=O)NC1CCS(=O)(=O)C1 (configuration not stated)	i	-0.18
COc1ccc(C(=O)Nc2cc3c(cc2Cl)OCCCO3)cc1	i	6.5
Cn1c(CNC(=O)C(C)(C)C)nc2ccccc21	i	-0.63
CCCN1C(=O)/C(=C/c2ccc(C)o2)SC1=Nc1ccc(OCC)cc1	i	-2.1
CC(=O)Nc1ccc(S(=O)(=O)N2CCSC2c2ccc(Cl)cc2)cc1 (configuration not stated)	i	1.2
CCCNC(=O)C(CC)NS(=O)(=O)c1ccc(OC)cc1 (configuration not stated)	i	-0.59
Cc1cc(=O)nc2c3ccccc3n(CC(=O)NC3CCCCC3)n12	i	2.7
O=C1NN(c2ccccc2)C(=O)/C1=C\c1cccn1-c1ccc(Cl)c([N+](=O)[O-])c1	i	0.8
CCN(CC)CCn1c2c(c(SCC(=O)Nc3cc(C)cc(C)c3)nc1=O)CCC2	i	-1.8
CCOc1ccc(N(CC(=O)Nc2ccccc2Cl)S(C)(=O)=O)cc1	i	0.04
Further records
SMILES	KCNQ2 inh	KCNQ2 inh baseline
O=C(C1=C[C@@H](C2CC2)C[C@@H](OCc2ccc(CO)cc2)O1)N1CCN(Cc2ccccc2)CC1	i	-0.01
Cc1ccc(S(=O)(=O)N[C@@H](Cc2ccccc2)C(=O)N2CCC[C@@H]2C(=O)O)cc1	i	0.66
CCN(CC)CCn1c(=N)n(CC(O)c2ccco2)c2ccccc21 (configuration not stated)	i	-0.28
Cc1ccc(CN(c2ccc(C(=O)NCc3ccccn3)cc2)S(C)(=O)=O)cc1	i	0.33
O=C(CCn1c(=S)[nH]c2cc3c(cc2c1=O)OCO3)NCc1cccc(Cl)c1	i	-0.59
CC(=O)COc1ccc2c(-c3ccccc3)cc(=O)oc2c1	i	3.4
COc1ccc(C2CC(c3ccc(F)cc3)=NN2c2ccccc2)cc1OC (configuration not stated)	i	2.1
CC(C)C12CN3CC(C(C)C)(CN(C1)C3(C)C)C2=O	i	-1.3
Cc1cccc(C)c1NC(=O)NC1CC2CCC(C1)N2Cc1cccs1 (configuration not stated)	i	4.2
Cc1ccc(NC(=O)C(C)N2C(=O)c3ccccc3C2=O)cc1C (configuration not stated)	i	-0.25
Oc1cc2ccccc2cc1-c1nnc2n1-c1ccccc1SC2	i	-0.62
CCOc1ccc(CC(=O)N2CCN=C2SC)cc1	i	-0.32
C/C(=N\NC(=O)CCCCCNC(=O)c1ccccc1)c1ccccc1O	i	0.12
CCCCCCCCN1[C@@H](CC(=O)OCC)c2cc(F)ccc2S1(=O)=O	i	-2.3
CC(=O)Nc1ccc(NC(=O)CSc2ccc(-c3sc(C)nc3C)nn2)cc1	i	0.46
COc1ccc(C(=O)N2CC3(CC(c4cccc(NC(=O)COc5ccc(Cl)cc5)c4)=NO3)C[C@@H]2C(N)=O)cc1 (some centres not stated)	i	0.31
COc1cccc2cc(C(=O)Nc3cccnc3N3CCOCC3)c(=O)oc12	i	-1.1

Some of the compounds tested (hit frequency here may not be typical).
